gsp ag: gsp mutant agonism; gsp mutant cells, cAMP HTRF, 30 min; control for the full effect not named in the record; Potency, µM (top dose mostly 76.9 µM), for the others: at the top dose activation (cAMP increase), actives largely listed as activators; 340,000 compounds, 0.13% hits; AID 624287; active = well fitted activation curve with a large enough effect; inconclusive = small, poorly fitted or top-dose-only effect, or another doubt; inactive = no such curve, though single readings can be large or run the other way; cell line not stated here;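 also: phosphodiesterase inhibitor Ro 20-1724 added with compounds to block cAMP breakdown; potency is read from the fitted curve at half-maximal effect; nearly all actives have a fitted effect of over 60% in size; about a fifth of the inactives were tested at one dose only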
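Cells stably selected in G418 were plated at 2000/well, grown 16-24 hr, then given compounds in DMSO with the PDE inhibitor […] (300 uM solution added) for 30 min at 37C; cAMP was read by HTRF.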
Sfp inh: Sfp phosphopantetheinyl transferase inhibition. Q9F4F7. Biochemical Sfp PPTase activity, qHTS. Potency, µM, without a hit: max response, negative = inhibition, actives largely listed as inhibitors. 310,000 compounds, 3.5% hits; active = well fitted inhibition curve with a large enough effect; inconclusive = small, poorly fitted or top-dose-only effect, or another doubt; inactive = no such curve, though single readings can be large or run the other way;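 also: the enzyme is Sfp with the accession as filed and its product quenches rhodamine fluorescence; potency is read from the fitted curve at half-maximal effect; 0% = enzyme reaction without inhibitor and -100% = no enzyme wells; top concentration of the series not given in the record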
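Fluorescence-quenching assay: 15 nM Sfp-PPTase preincubated 15 min at room temperature with compound, then 5 uM rhodamine-CoA and 12.5 uM BHQ-2-labelled YbbR peptide added. Fluorescence (ex 525/em 598 nm) read at start and after 30 min; difference gives rate.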
TRPV1 PAM: human TRPV1 potentiation; Q8NER1; TRPV1-expressing cells, Fluo-8 calcium influx, capsaicin EC20 potentiation; host cell line not named in the record; control for the full effect not named in the record; potentiation, % at 8.33 µM; 320,000 compounds, 0.02% hits; active means potentiation above 80%; inconclusive means 30% to 80%; inactive means below 30%; also: 0% is about no effect
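TRPV1-expressing cells were cultured overnight at 35.5C and loaded with Fluo-8 calcium dye for 40 to 90 min at room temperature. After a 10 s baseline, compound was added and calcium influx was read kinetically for 3 min (ex 480/em 520 nm).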
gsp antagonist: antagonizes gsp, the McCune-Albright syndrome mutation. gsp-mutant cells, cAMP HTRF, 30 min; control for the full effect not named in the record. Potency, µM (doses to about 76.9 µM), for the others: top-dose activity change, negative = inhibition, hits mostly inhibitors. 340,000 compounds, 0.4% hits; active = falling curve of any shape with a large fitted effect; inconclusive = falling curve, mostly with a smaller effect; inactive = flat or rising curve; cell line not stated here;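 also: intracellular cAMP measured with PDE inhibitor Ro 20-1724 present during compound exposure; potency is read from the fitted curve at half-maximal effect; % is scaled to controls: 0 for no effect and ±100 for the full control effect; nearly all actives have a fitted effect of over 65% in size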
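G418-selected cells were plated in DMEM/10% FBS for 16-24 h at 37C, then treated with compounds plus the PDE inhibitor […] (300 uM solution added) for 30 min at 37C. Intracellular cAMP was measured by HTRF after 30 min lysis at room temperature.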
ClpP mod: qHTS Assay for Activators of ClpP; Potency, µM (series often up to 57.5 µM), inactives show at the highest dose activity change, negative = active; 340,000 compounds, 1.9% hits; purified B. subtilis ClpP, FRET peptide cleavage, 20 min; ATP-dependent Clp protease proteolytic subunit (Bacillus subtilis (strain 168)), P80244; active = well fitted falling curve with a large enough effect; inconclusive = small, poorly fitted or top-dose-only effect; inactive = no such curve, though single readings can be large or run the other way; also: potency is read from the fitted curve at half-maximal effect; the source files actives as falling curves though it sought activators and does not explain the sign; nearly all actives have a fitted effect of over 65% in size; many hits overshoot -100%
Target sequence (P80244 whole entry, looked up): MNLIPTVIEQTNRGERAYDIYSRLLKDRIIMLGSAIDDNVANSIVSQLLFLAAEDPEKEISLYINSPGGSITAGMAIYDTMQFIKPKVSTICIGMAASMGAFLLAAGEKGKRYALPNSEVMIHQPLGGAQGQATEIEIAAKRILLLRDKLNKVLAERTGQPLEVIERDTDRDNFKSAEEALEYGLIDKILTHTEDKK
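ClpP 10 microg/mL final, pH 8 Tris/KCl buffer with BSA, glycerol, Tween-20; compound pinned in; FRET-FV substrate; RT 20 min; Ex320/Em430; ΔFRET vs ADEP 5.8 microM, DMSO, no enzyme.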
Menin-MLL FL inh: menin-MLL binding inhibition, fluorescein peptide. FP activity change, % at 61.4 µM. 290,000 tested, under 10 active. Fluorescence polarization, fluorescein-MLL peptide displacement from menin; inconclusive = falling polarisation curve, or a change in total fluorescence; inactive = total fluorescence flat and polarisation flat or rising; no compound was filed as active; the % refers to the polarisation; negative = inhibition;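 also: % of control where 0% means no effect; inhibitors lower the polarisation; unlabelled MLL peptide was the positive control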
D2 potentiator: positive allosteric modulators of human D2 dopamine receptor; potentiation, % (test concentration not listed); AID 624464; P14416; 360,000 compounds, 0.23% hits; DiscoveRx D2 beta-arrestin cells, luminescence, 90 min; 100% = 57 uM dopamine signal; active = potentiation of 50% or more; inconclusive = 30% to 50%; inactive = 30% or less;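 also: compound concentration not given in the record; tested on top of an EC20 dose of dopamine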
Target sequence (P14416 whole entry, looked up): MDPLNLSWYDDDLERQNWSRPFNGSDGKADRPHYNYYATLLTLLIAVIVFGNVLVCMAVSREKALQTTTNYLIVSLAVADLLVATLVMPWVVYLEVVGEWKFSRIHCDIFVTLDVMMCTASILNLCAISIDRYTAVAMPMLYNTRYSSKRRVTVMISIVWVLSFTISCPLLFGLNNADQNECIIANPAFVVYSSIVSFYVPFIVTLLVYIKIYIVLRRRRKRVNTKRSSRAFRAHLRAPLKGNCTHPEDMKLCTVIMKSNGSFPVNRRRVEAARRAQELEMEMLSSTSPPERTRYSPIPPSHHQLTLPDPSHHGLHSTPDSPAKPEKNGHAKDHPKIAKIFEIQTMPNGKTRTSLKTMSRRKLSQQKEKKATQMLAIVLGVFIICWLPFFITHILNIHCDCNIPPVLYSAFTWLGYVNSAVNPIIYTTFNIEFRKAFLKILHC
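D2 cells co-treated with compound plus 50 nM dopamine (EC20) for 90 min at 37 deg C to detect potentiation. Beta-arrestin recruitment was read as enzyme-fragment luminescence after 1 h at ambient temperature. Full response was set by 57 uM dopamine.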
An asterisk follows results filed as active; ? = inconclusive; . = no result given; [ ] = remark or other dose.

SMILES	ClpP mod	TRPV1 PAM	Sfp inh	D2 potentiator	gsp antagonist	gsp ag	Menin-MLL FL inh
O=S(=O)(Cc1ccccc1)/C1=C(\N2CCOCC2)CCCCCC1	-0.1%	-4	11%	-4	-2%	7%	-0.7
Cc1ccc(CNC(=O)c2cccnc2)cc1	0.2%	.	.	-18	-6%	5%	.
Cc1cc(C)c2nc(NC(=O)c3cc(C)on3)sc2c1	94%	-2	-7%	-6	-9%	-2%	1.9
O=C(CNC(=O)c1ccco1)OCC(=O)c1ccc2c(c1)CCCC2	-1.4%	0	7%	-6	0%	-2%	1.5
CCOC(=O)c1ccc(NC(=O)c2ncn3c2C(=O)NC[C@H]3C)cc1	-0.2%	.	.	-3	.	-20%	.
O=C(/C=N\O)NCCCNCc1ccccc1	0.0%	-4	1%	-18	7%	-6%	0.1
O=C(Nc1c(F)cc(F)cc1Br)c1ccco1	-2.2%	-4	50µM*	-6	4%	-26%	6.2
COc1cccc(CN(C)C(=O)c2cc(S(=O)(=O)NC3CCCCC3)ccc2C)c1OC	-3.5%	-9	.	-2	-5%	9%	.
CCNC(=O)COC(=O)Cc1ccc(Cl)cc1Cl	.	-19	12%	-1	.	-4%[15.4 µM]	0.3
COc1ccc(CN2CCCC(CNC(=O)c3ccc(F)cc3)C2)c(C)c1C (stereo not given)	-2.0%	0	21%	-20	13%	-8%	-0.4
CC12CCC(C(=O)NCc3ccc4c(c3)OCO4)(C(=O)C1=O)C2(C)C (stereo not given)	-1.0%	-3	11%	10	-12%	20%	0.6
COc1ccc(/C=C2\CC/C(=C\c3ccc(OC)c(OC)c3)C2=O)cc1OC	-2.6%	21	-20%	-8	2%	-64%[inhibitor]	0.1
CN=c1sc2ccccc2n1CC(O)COCc1ccco1 (stereo not given)	-1.6%	-24	-8%	5	-18%	-5%	2.1
CSc1ccc(/C=C/C(=O)N2CCCN(C)CC2)cc1	.	-23	7%	-12	.	7%[15.4 µM]	-9.0
COC(=O)c1[nH]c2cccc(OC)c2c1NC(=O)CCN1CCC(C(N)=O)CC1	.	-10	4%	.	.	.	-0.9
O=CN/C=C/c1cc(O)ccc1O	22µM*	-9	14µM*	21	-24%	.	-1.1
CCOc1ccccc1N1CCN(CC(=O)NC(C)c2ccccc2)CC1 (stereo not given)	.	-10	-2%	-23	7%	-35%[inhibitor]	-0.7
O=C(NC1CCC(c2ccccc2)CC1)c1cccnc1 (stereo not given)	-9.5%	14	10%	-25	-9%	10%	2.7
CCCCn1c(-c2ccccc2)nc2c(=O)n(C)c(=O)[nH]c21	?	6	-11%	-11	-20%	1%	3.2
c1ccc(NC2=NCCCCS2)cc1	-0.3%	9	9%	-8	7%	14%	-6.0
CCN(CC)CC(=O)Nc1ccc(C)cc1C(=O)c1ccccc1	.	-16	26%	-10	-9%	4%[15.4 µM]	-0.6
COc1cc(OC)cc(C(=O)OCC(=O)NCc2ccc3c(c2)OCO3)c1	.	-2	11%	-1	5%	9%	-5.6
COc1cccc(NC(=O)CSC(N)=O)c1	-1.9%	4	-23%	-27	16%	-4%	2.6
Cc1nn(C(=O)c2c(-c3ccccc3)noc2C)c(C)c1N=Nc1cc(C(F)(F)F)cc(C(F)(F)F)c1	1.4%	8	17%	18	-9%	?	-1.2
CS(=O)(=O)Nc1nc2n(n1)C(c1ccccc1)CC(c1ccccc1)N2 (stereo not given)	.	-16	13%	-1	-11%	33%[15.4 µM]	1.5
COc1ccc(N(CC(=O)NCCC2=CCCCC2)S(=O)(=O)c2ccccc2)c(OC)c1	.	-13	-1%	-3	1%	-29%	-2.2
O=C1Nc2cc(C(=O)N3CCN(c4ccccn4)CC3)ccc2S/C1=C\c1ccccc1	-1.5%	-2	-8%	0	?	?	.
CCOCCn1c(SCC(=O)OCc2ccccc2)nc2c1c(=O)[nH]c(=O)n2C	-1.0%	3	14%	-2	-10%	-5%	3.3
CCN(CC)S(=O)(=O)c1ccc(Cl)c(NC(=O)CSc2cccc[n+]2[O-])c1	-0.8%	22	-5%	-12	12%	8.9µM*	7.2
CSCc1ccc(C(=O)NC(C)c2cnn(-c3ccccn3)c2C)o1 (stereo not given)	0.2%	14	8%	-2	5%	-21%	1.0
CC(C)c1nnc(NC(=O)C2CCN(C(=O)Nc3ccc(Cl)cc3)CC2)s1	.	5	-6%	-10	-8%	-5%	-8.4
O=C(COC(=O)c1ccc2ncsc2c1)Nc1cc([N+](=O)[O-])ccc1Cl	-2.6%	-2	.	-3	5%	-12%	.
Cc1cccc(NC(=O)CCNC(=O)c2ccco2)c1C	.	3	7%	-2	5%	15%	-0.5
COc1ccccc1NC(=O)C1=C(C)Nc2nc(CCCO)nn2C1c1cccnc1 (stereo not given)	-6.5%	?	-10%	-1	-1%	-35%	-4.5
Cc1cc(C(=O)NNC(=O)c2ccc(S(=O)(=O)N(C)C)cc2)c(C)o1	-10%	12	12%	-18	5%	6%	-0.1
NC(=O)c1ccc(SCC(=O)OCC(=O)N2CCCCC2)c([N+](=O)[O-])c1	-1.0%	-15	.	-1	7%	-5%	.
COC(=O)c1c(C)[nH]c(C(=O)COC(=O)c2c(C)noc2C)c1C	1.2%	0	.	-1	4%	-13%	.
CC(=O)c1ccc(OC(=O)CCc2ccccc2)cc1	2.3%	-4	7%	0	5%	?	-5.6
Cn1ccnc1Sc1ccc(C(N)=O)cc1[N+](=O)[O-]	32µM*	-5	10%	-6	18%	16%[15.4 µM]	0.8
COc1ccc(-c2noc(N3CCCC(C(=O)Nc4ccccc4F)C3)n2)cc1 (stereo not given)	1.5%	-10	-8%	-15	-6%	-58%[inhibitor]	5.1

Shown as a hit in gsp ag, of those listed so far:
canonical_smiles	Sfp inh	D2 potentiator	gsp antagonist	gsp ag	Menin-MLL FL inh
CCN(CC)S(=O)(=O)c1ccc(Cl)c(NC(=O)CSc2cccc[n+]2[O-])c1	-5%	-12	12%	8.9µM*	7.2

Going on with the list.
SMILES	ClpP mod	TRPV1 PAM	Sfp inh	D2 potentiator	gsp antagonist	gsp ag	Menin-MLL FL inh
COc1ccc(Oc2c(Cl)cnn(-c3ccc(Cl)c(Cl)c3)c2=O)cc1	-4.3%	5	27%	28	?	-8%	0.8
COc1ccccc1C(=O)N/C(=C/c1ccc(Br)cc1)C(=O)NCC(=O)O	-2.8%	-3	6%	-2	3%	10%	4.4
Cc1cc2nc3n(c2cc1C)CC1CC(C(=O)NCc2ccco2)N(C)C31 (stereo not given)	1.0%	-5	18%	-7	-1%	.	-2.0
NC(=O)c1c(NC(=O)c2cccnc2)sc2c1CCCC2	.	9	-7%	-3	-5%	1%	-0.4
Cc1ccc(NC(=O)c2ccc3c(c2)N(CC(=O)N2CCCCC2)C(=O)C(C)(C)O3)cc1	2.4%	-15	-1%	-10	-14%	4%	4.6
CN(CC(=O)Nc1cccc(F)c1)C(=O)c1cccc(S(=O)(=O)N2CCN(Cc3ccccc3)CC2)c1	1.6%	.	.	-1	.	-2%	.
COc1cccc(NC(=O)COc2c(F)c(F)c(C(F)(F)F)c(F)c2F)c1	-1.6%	0	18%	-7	-23%	7%[15.4 µM]	2.1
COc1ccc(CNC(=O)CN(CC2CCCO2)C(=O)CNS(=O)(=O)c2ccc(F)cc2)cc1 (stereo not given)	0.4%	3	17%	-11	4%[15.4 µM]	5%	-0.5
Cc1cc(C)c(-n2nnnc2SCC(=O)c2cc3ccccc3o2)c(C)c1	-6.5%	?	12%	-10	4%	-1%[15.4 µM]	?
Cc1ccc(Nc2c([N+](=O)[O-])c(=O)n(C)c3ccccc23)cc1	.	7	-4%	-5	-2%	-12%[15.4 µM]	-1.0
COc1ccc(NC(=O)CN(C)C(=O)c2ccc(N3CCCCC3)c([N+](=O)[O-])c2)cc1	-0.7%	-7	.	-6	-5%	-13%	.
CCO/C(C)=C1/SC(=S)NC1=O	-1.3%	-1	32µM*	-31	-2%	7%[15.4 µM]	?
Cc1cc(NC(=O)C(C)SCC(=O)N(Cc2ccccc2)c2ccccc2)no1 (stereo not given)	.	-15	.	4	6%	-15%[15.4 µM]	.
Cc1cc(C)n2nc(CCCO)nc2n1	0.3%	-8	21%	-6	3%	-19%	2.1
CCCC1CC(CCc2ccccc2)OS(=O)(=O)N1 (stereo not given)	-0.4%	25	0%	-4	7%	.	-0.8
C[N+](C)(C)CCOc1ccc([N+](=O)[O-])cc1	-0.1%	-10	18%	-5	6%	7%	-11
CC1CCN(C(=O)c2ccccc2NC(=O)Cc2ccccc2)CC1	0.8%	5	3%	-3	18%	14%	.
CCc1ccc(NC(=S)NCc2ccccc2)cc1	.	-7	4%	2	-1%	15%[15.4 µM]	0.7
Fc1ccc(-c2csc(N3CCOCC3)n2)cc1	.	8	-15%	-2	-3%	11%	3.2
Cc1ccc(S(=O)(=O)NC2CC(C)(C)NC(C)(C)C2)cc1	-0.6%	?	5%	6	12%	9%[15.4 µM]	1.6
Cc1cc(N/N=C/c2ccncc2)c([N+](=O)[O-])cc1[N+](=O)[O-]	.	-3	23%	1	-7%	1%	-0.5
CC(=O)c1csc(COc2ccc(Cl)cc2)n1	1.7%	14	12%	-9	-9%	-19%	-1.4
O=C(Cn1nnc(-c2ccc(CN3CCOCC3)cc2)n1)Nc1nc(-c2ccccc2)cs1	1.5%	28	13%	-3	?	-31%[inhibitor]	5.5
CCN(CC)c1ccc(C(=O)OCC(=O)Nc2cc(C)on2)cc1	-1.7%	4	.	-10	2%	0%	.
ON1C(c2ccccc2)CC2(O)c3nonc3CCC12 (stereo not given)	-3.9%	6	5%	-5	8%	0%	2.4
CCc1ccc(OCCOCC(O)CNC(C)CC)cc1 (stereo not given)	-0.4%	9	5%	24	7%	14%	1.3
Cn1c(/C(C#N)=C(\O)CN2CCN(Cc3ccccc3)CC2)nc2ccccc21	-0.7%	-6	-7%	-21	-2%	18%	4.1
